Screening results deposited in PubChem BioAssay by National Center for Advancing Translational Sciences (NCATS).
SARS PLpro yeast: blocks SARS-CoV papain-like protease in a yeast assay. Potency, µM (doses to about 32.9 µM), without a hit: at the top dose activity, positive = growth rescue. hit rate 0.19% among 330,000. S. cerevisiae expressing SARS-CoV PLpro, growth rescue; control for the full effect not named in the record; active means well fitted rising curve with a large enough effect; inconclusive means small, poorly fitted or top-dose-only effect; inactive means no such curve, though single readings can be large or run the other way; also: 0% is about no effect; nearly all actives have a fitted effect of over 55% in size; growth read by luminescence after 48 h
NS1 inh: inhibitors of influenza NS1 protein function | S. cerevisiae slowed by influenza A NS1, growth recovery by OD600 | Potency, µM (titrated, usually from 46.1 µM), for the others: at the highest dose activity, positive = more growth | hit rate 0.4% among 270,000; active means well fitted rising curve with a large enough effect; inconclusive means small, poorly fitted or top-dose-only effect; inactive means no such curve, though single readings can be large or run the other way; also: nearly all actives have a fitted effect of over 50% in size
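Compounds were scored for reversing the slow growth caused by influenza A NS1 in S. cerevisiae, measured by optical density at 600 nm. Assay medium contained 2% galactose at pH 6.0; NS1-free yeast of the same strain were the positive control.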
Cruzain Triton: inhibitors of Trypanosoma cruzi cruzain with detergent; purified cruzain, Z-FR-AMC fluorescence, 0.01% Triton; hit rate 0.43% among 200,000; P25779; Potency, µM, for the others: max response, negative = inhibition, most hits filed as inhibitors;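 also: plate controls were neutral wells for no effect and buffer without enzyme for full effect; nearly all actives have a fitted effect of over 40% in size; top concentration of the series not given in the record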
Target sequence (P25779 123-467 limits assumed): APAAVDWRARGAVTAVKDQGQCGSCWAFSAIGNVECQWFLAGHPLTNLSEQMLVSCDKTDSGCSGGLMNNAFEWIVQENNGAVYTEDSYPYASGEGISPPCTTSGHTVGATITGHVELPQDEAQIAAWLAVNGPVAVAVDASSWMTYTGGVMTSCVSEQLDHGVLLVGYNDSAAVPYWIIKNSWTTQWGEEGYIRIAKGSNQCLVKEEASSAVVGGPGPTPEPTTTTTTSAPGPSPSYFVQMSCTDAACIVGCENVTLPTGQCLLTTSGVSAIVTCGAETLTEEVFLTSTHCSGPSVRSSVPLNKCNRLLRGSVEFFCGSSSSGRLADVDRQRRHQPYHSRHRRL
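15 min RT preincubation of 1.5 nM cruzain with compound, then 2 uM Z-FR-AMC added; kinetic AMC fluorescence, 60 s delta. Triton X-100 0.01%, pH 5.5.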
RE007 growth inh: less growth of the S. pombe RE007 Vpr strain. AID 651644. hit rate 0.21% among 360,000. Potency, µM (highest dose often 92.2 µM), without a hit: at the highest dose activity change, negative = less growth. S. pombe RE007 Vpr strain, BacTiter-Glo ATP luminescence, 24 h; control for the full effect not named in the record; active = well fitted falling curve with a large enough effect; inconclusive = small, poorly fitted or top-dose-only effect; inactive = no such curve, though single readings can be large or run the other way;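 also: % is scaled to controls: 0 for no effect and ±100 for the full control effect; nearly all actives have a fitted effect of over 50% in size; the assay follows cell death caused by Vpr and the record does not say whether a fall means rescue or toxicity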
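Fission yeast RE007 carrying one integrated HIV-1 vpr copy, seeded at OD 0.01 in PMG+AL medium with 23 nL pinned compound. Grown 24 h at 30 degrees; viability read by BacTiter-Glo luminescence after 5 min.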
Lassa entry inh: inhibitors of Lassa virus binding or cell entry; Potency, µM (highest dose often 37.9 µM), for inactives: top-dose activity change, negative = inhibition, actives largely listed as inhibitors; Lassa virus pseudotype entry inhibition, cell reporter; control for the full effect not named in the record; hit rate 1.2% among 300,000; active means well fitted inhibition curve with a large enough effect; inconclusive means small, poorly fitted or top-dose-only effect, or effect the other way; inactive means flat fitted curve, though single readings scatter; tested in HEK293 cells; also: % is scaled to controls: 0 for no effect and ±100 for the full control effect; nearly all actives have a fitted effect of over 50% in size; luciferase read-out
MARV entry inh: inhibitors of Marburg virus binding or cell entry; Marburg virus pseudotyped entry inhibition, cell reporter; control for the full effect not named in the record; about a third of the inactives were read at about 46 µM; Potency, µM (series often up to 37.8 µM), without a hit: at the highest dose activity change, negative = inhibition, most hits filed as inhibitors; hit rate 1.8% among 300,000; AID 540276; active = well fitted inhibition curve with a large enough effect; inconclusive = small, poorly fitted or top-dose-only effect, or effect the other way; inactive = flat fitted curve, though single readings scatter; tested in HEK293 cells; about a fifth of its hits are not listed in these tables; also: % is scaled to controls: 0 for no effect and ±100 for the full control effect; luciferase read-out
2A StopGo: lowers the luciferase signal of an FMDV 2A StopGo reporter | hit rate 1.2% among 410,000 | Potency, µM (doses to about 57.9 µM), without a hit: at the top dose signal change, negative = less light | human cells with a luciferase reporter of 2A StopGo recoding; control for the full effect not named in the record | AID 1159524; active = well fitted falling curve with a large enough effect; inconclusive = small, poorly fitted or top-dose-only effect; inactive = no such curve, though single readings can be large or run the other way; tested in HEK293T cells; also: % is scaled to controls: 0 for no effect and ±100 for the full control effect; nearly all actives have a fitted effect of over 45% in size; luciferase light after 4 h
Cruzain inh noDet: cruzain (T. cruzi) inhibition without detergent; hit rate 2.3% among 200,000; Potency, µM, for inactives: max response, negative = inhibition, hits mostly inhibitors; P25779; purified cruzain, Z-FR-AMC fluorescence, no detergent;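 also: plate controls were enzyme without inhibitor for no effect and buffer without enzyme for full effect; nearly all actives have a fitted effect of over 40% in size; top concentration of the series not given in the record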
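Detergent-free condition (0.00005% Triton X-100) in acetate buffer pH 5.5 with DTT. 1.5 nM enzyme and compound were pre-mixed 15 min, then 2 uM Z-FR-AMC substrate added; reaction progress from fluorescence change between first and third reads (60 s).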
Starred values were filed as active, the others as inactive; ? = inconclusive; . = no result given; & = joins results of further samples; [ ] = remark or other dose. Unless noted, calls follow the shape of the dose curve; as a rule, active = well fitted curve in the direction sought with a large enough effect; inconclusive = small, poorly fitted or top-dose-only effect, or another doubt; inactive = no such curve, though single readings can be large; an effect the other way counts as inactive or inconclusive. Potency is read from the fitted curve at half-maximal effect.

SMILES	SARS PLpro yeast	NS1 inh	Cruzain Triton	RE007 growth inh	Lassa entry inh	MARV entry inh	2A StopGo	Cruzain inh noDet
COc1ccc(OC)c(CCNc2ncnc3onc(C)c23)c1	.	.	-1.8%	.	3%[46.1 µM]	.	?	1%
COC(=O)c1ccc(COC(=O)CCc2nc(-c3ccccc3)c(-c3ccccc3)o2)cc1	6%	15%	-21%	4%	-31%[14.3 µM]	6%	-23%	2%
CCOC(=O)COn1c(=O)c(C)[n+]([O-])c2ccccc21	6%	7%	-10%	6%	7%	17%	.	2%
COc1ccc(N2CCN(C(=O)Cn3c(=O)[nH]c4ccsc4c3=O)CC2)cc1	0%	10%	2.9%	-5%	-14%	5%	2%	-11%
CCCCN1C(=O)/C(=C/C=C2/C=Cc3ccccc3N2CC)SC1=S	1%	0%	.	3%	-1%	3%[46.1 µM]	?	.
COc1ccc(NC(=O)C2CCCN(S(=O)(=O)c3cccc4nonc34)C2)cc1 (stereo unspecified)	5%	0%	3.4%	2%	-22%	-21%	.	-30%
Oc1ccc(C(=S)N2CCCC2)cc1	-1%	4%	.	1%	.	.	0%	.
CCc1ccc(-n2c(=O)c3c4c(sc3n(CC(=O)N3CCC(C)CC3)c2=O)CCC4)cc1	.	.	-3.2%	.	2%[46.1 µM]	16%[46.1 µM]	-3%	-5%
C=CCOc1ccc(C2/C(=C(/O)c3ccc(OC)cc3)C(=O)C(=O)N2CCN2CCNCC2)cc1 (stereo unspecified)	2%	9%	.	-7%	16%[46.1 µM]	25%[46.1 µM]	3%	.
CC(Sc1n[nH]c(N)n1)C(=O)Nc1cccc(S(=O)(=O)N2CCOCC2)c1 (stereo unspecified)	2%	.	.	-11%	10%	?	4%	.
CC(C)Oc1ccc(CNC(=O)C2CCCCN2S(=O)(=O)c2ccc(F)cc2)cc1 (stereo unspecified)	.	.	-1.5%	.	?	.	21%	-4%
COc1ccccc1CNC(=O)CN1C(=O)CCc2cc(S(=O)(=O)N3CCCCC3)ccc21	.	.	-0.5%	.	4%[46.1 µM]	.	48%[activator]	10%
O=c1nc(N2CCOCC2)ccn1Cc1ccc(Br)cc1	2%	6%	1.9%	-4%	11%	14%	.	-1%
COc1cc(/C=N/NC(=O)C(C)Nc2n[nH]c(=O)[nH]c2=O)cc(OC)c1O (stereo unspecified)	-1%	4%	-2.7%	1%	?	1%	-8%	-5%
COc1ccc(NC(=O)CC2(CC(=O)O)CCCC2)cn1	-2%	.	.	10%	.	-10%[46.1 µM]	-1%	.
O=C(C(c1ccccc1)C(O)(c1ccccc1)c1ccccc1)N1CCOCC1 (stereo unspecified)	.	.	.	0%	1%[46.1 µM]	0%[46.1 µM]	-11%	.
CC1CC(C)CN(C(=O)c2cc3ccccc3o2)C1 (stereo unspecified)	-7%	.	.	0%	11%[46.1 µM]	21%	59%[activator]	.
c1ccc(-c2nccc(-c3ccc(-n4cnc5ccccc54)cc3)n2)nc1	-1%	7%	-17%	3%	-19%	0%	-29%	30%
CCCCC(C(=O)NC1CCCC1)N(C(=O)c1snc(C(N)=O)c1N)c1ccc(OCC)cc1 (stereo unspecified)	4%	2%	.	-11%	.	12%[46.1 µM]	-29%	.
COc1ccccc1NC(=S)N(Cc1ccco1)Cc1cc2cc(C)c(C)cc2[nH]c1=O	-2%	16%	-8.5%	6%	?	?	-16%	?
Cc1cc(C)c(NC(=O)Cn2c(=O)n(-c3ccc(F)cc3)c(=O)c3c(C)c(C(=O)N(C)C)sc32)c(C)c1	.	.	1.6%	.	-2%[46.1 µM]	.	-1%	-12%
O=[N+]([O-])c1cccc(S(=O)(=O)Nc2ccc(-c3ccc(N4CCCC4)nn3)cc2)c1	1%	.	.	0%	-2%	-6%	40%[activator]	.
COc1cc(=O)[nH]c(SC(C)C(=O)Nc2cc(C)on2)n1 (stereo unspecified)	-2%	4%	.	-16%	28%[46.1 µM]	0%[46.1 µM]	1%	.
CN(C)c1ccc(-c2n(C)c3ccccc3[n+]2C)cc1	25%	6%	-15%	-5%	?	?	.	-1%
CCOc1ccc(NC(=O)C2CCN(S(=O)(=O)c3c(C)noc3C)CC2)cc1	-4%	3%	.	5%	.	.	-12%	.
Cc1cccc(Cn2c(C)c(C)c3cc(C(=O)NCCN4CCOCC4)ccc32)c1	-14%	6%	.	7%	?	?	-12%	.
Cc1nc(-c2ccncc2)nc(NCCNc2ncccc2C(F)(F)F)c1Cl	-10%	-9%	.	6%	.	.	-24%	.
CCc1ccccc1N(CC(=O)O)S(C)(=O)=O	10%	7%	3.4%	22%	1%	0%[46.1 µM]	-7%	-6%
Cc1nc(-c2ccc(Cl)cc2)sc1C1(C)CC(c2ccccc2F)=NO1 (stereo unspecified)	0%	4%	.	-3%	.	.	32%[activator]	.
O=C(COC(=O)c1ccccn1)Nc1ccc2c(c1)OCO2	0%	0%	.	-4%	.	.	15%	.
C[C@]12CC[C@H](OC(=O)CCC(=O)O)CC1=CCC1C2CC[C@@]2(C)C1CC[C@@H]2N (stereo partly specified)	-1%	.	.	18%	10%[46.1 µM]	29%[46.1 µM]	-1%	.
COc1ccccc1/C=N/NC(=S)NCc1ccco1	12%	-2%	.	-17%	-8%	-11%[46.1 µM]	-16%	.
c1cc2cc(-c3c(-c4ccc5c(c4)OCO5)noc3-c3ccsc3)ccc2[nH]1	-5%	8%	.	-2%	.	.	19%	.
CC1CCCCN1Cc1ccc(-c2nnn(CC(=O)NC3CCCCC3)n2)cc1 (stereo unspecified)	6%	0%	-2.1%	-9%	3%	?	-24%	-1%
CCOC(=O)C1CCCN(C(=O)c2[nH]c3ccc(OC)cc3c2C)C1 (stereo unspecified)	1%	2%	.	-19%	.	.	-20%	.
Cc1ccc2[nH]c3c(c2c1)CN(C(=O)CN1CCCc2ccccc21)CC3	1%	3%	-4.5%	-3%	-13%	?	16%	?
O=C(CSc1nnc(SCc2ccccc2Cl)s1)N/N=C/c1ccc(C(=O)O)cc1	0%	15%	.	-1%	.	.	39%[activator]	.
C=CCN(c1ccccc1)S(=O)(=O)c1cc2c(cc1C)NC(=O)CO2	9%	11%	.	-1%	.	.	-1%	.
CCCCN(CCCNC(=O)CN1C(=O)COc2ccc(S(=O)(=O)N3CCC(C)CC3)cc21)Cc1ccccc1	6%	-1%	.	-5%	.	.	8%	.
Cc1cccc(CNS(=O)(=O)c2ccc(-c3coc(C)n3)cc2)c1	.	.	-2.0%	.	6%[46.1 µM]	.	-6%	-4%

A few values from the list.
Under Cruzain Triton, `CN(C)c1ccc(-c2n(C)c3ccccc3[n+]2C)cc1` has -15%
Under RE007 growth inh, `O=[N+]([O-])c1cccc(S(=O)(=O)Nc2ccc(-c3ccc(N4CCCC4)nn3)cc2)c1` has 0%

More entries
SMILES	SARS PLpro yeast	NS1 inh	Cruzain Triton	RE007 growth inh	Lassa entry inh	MARV entry inh	2A StopGo	Cruzain inh noDet
CCOC(=O)C1CCN(S(=O)(=O)c2ccc(NC(=O)c3ccco3)cc2)CC1	-5%	-9%	.	9%	?	-17%	?	.
Cc1ccc(C(=O)COC(=O)COc2ccccc2[N+](=O)[O-])s1	4%	.	.	26%	14%	?	-1%	.
COc1ccc(Cl)cc1NC(=O)CSc1nc(-c2ccco2)cc(C(F)(F)F)n1	.	.	-4.1%	.	-11%[46.1 µM]	?	0%	-18%
O=C(COc1ccccc1)N1CCN(C(=O)c2ccc([N+](=O)[O-])cc2)CC1	0%	-3%	.	1%	2%	6%	-5%	.
CC(=O)c1ccc(-c2ccc(Cn3c(C)nc4cc(N)c(C)nc43)cc2)cc1	0%	3%	.	-5%	.	.	-10%	.
COc1ccc(CNC(=O)C(OC(=O)c2ccco2)c2ccccc2F)cc1 (stereo unspecified)	1%	-6%	.	9%	11%[46.1 µM]	-11%[46.1 µM]	12%	.
Cc1ccc(CNC(=O)Cc2ccc(Br)cc2)cc1	7%	20%	.	-3%	-2%	?	31%[activator]	.
CC1=C(C)CC(C(=O)NNC(=O)c2csc(C)c2C)C(C(=O)O)C1 (stereo unspecified)	2%	13%	-2.3%	5%	?	?	-22%	4%
CC12CCC(=O)N1C(C(=O)Nc1cc(Cl)ccc1N1CCOCC1)CS2 (stereo unspecified)	14%	-1%	.	7%	14%	3%	-17%	.
Brc1ccc(-c2nc(-c3cccnc3)no2)o1	8%	-77%	4.1%	3%	2%	-27%	25%	0%
COc1ccc(CC(=O)Nc2ccc(/C(C)=N\NC(=O)c3ccc(Br)o3)cc2)cc1	-7%	0%	.	-10%	-27%	24%	2%	.
Cc1ccccc1/C=N/n1c(-c2cc(-c3ccccc3)n[nH]2)n[nH]c1=S	-2%	-32%	.	8%	-18%[46.1 µM]	?	-3%	.
Cc1nc2c(ccc3nc(NC(=O)c4ccc5c(c4)OCCO5)sc32)s1	-8%	?	14µM*	-8%&2%	-24%	?	.	2%
Cc1cc[n+](-c2[nH]c(=O)sc2/C=N/NC([S-])=Nc2ccccc2)cc1C	-16%	17%	-18%	-7%	3%	5%	-13%	3%
COc1cc(CNC(C)C23CC4CC(CC(C4)C2)C3)cc(OC)c1OC (stereo unspecified)	1%	4%	.	8%	-26%	?	-20%	.
CC1=C(c2ccc(C(C)C)cc2)S(=O)(=O)N=C1N1CCN(c2ccccc2F)CC1	.	.	-2.6%	.	-1%[46.1 µM]	-23%[46.1 µM]	6%	10%
O=C1CC(Sc2ncccc2C(=O)O)C(=O)N1 (stereo unspecified)	0%	.	.	21%	.	3%[46.1 µM]	-13%	.
COc1ccc(NC(=O)c2cc(-c3ccco3)on2)c(OC)c1	5%	?	.	-24%	.	-20%[46.1 µM]	19%	.
CCNc1nc(NCC)n2c(SC(C(=O)Nc3cc(Cl)cc(Cl)c3)c3ccccc3)nnc2n1 (stereo unspecified)	3%	14%	-4.5%	2%	-2%	21%	-1%	-5%
CC(=O)N1CCc2cc(S(=O)(=O)CCC(=O)NCCc3ccc(C)cc3)ccc21	1%	-15%	.	3%	.	.	-14%	.
